High-throughput results from PubChem BioAssay.
NS1 inh: inhibitors of influenza NS1 protein function; S. cerevisiae slowed by influenza A NS1, growth recovery by OD600; Potency, µM (titrated, usually from 46.1 µM), for inactives: at the top dose activity, positive = more growth; 0.4% of 270,000 active; AID 2326; active means well fitted rising curve with a large enough effect; inconclusive means small, poorly fitted or top-dose-only effect; inactive means no such curve, though single readings can be large or run the other way; also: nearly all actives have a fitted effect of over 50% in size
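OD600 was taken as the measure of yeast growth restored by compound in an NS1-expressing S. cerevisiae strain. Cells had been washed out of glucose medium and diluted 1:100 into galactose -URA medium, pH 6.0.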
RE007 growth inh: less growth of the S. pombe RE007 Vpr strain; S. pombe RE007 Vpr strain, BacTiter-Glo ATP luminescence, 24 h; control for the full effect not named in the record; Potency, µM (doses to about 92.2 µM), for the others: top-dose activity change, negative = less growth; 0.21% of 360,000 active; active = well fitted falling curve with a large enough effect; inconclusive = small, poorly fitted or top-dose-only effect; inactive = no such curve, though single readings can be large or run the other way;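 also: % is scaled to controls: 0 for no effect and ±100 for the full control effect; nearly all actives have a fitted effect of over 50% in size; the assay follows cell death caused by Vpr and the record does not say whether a fall means rescue or toxicity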
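Fission yeast RE007 carrying one integrated HIV-1 vpr copy, seeded at OD 0.01 in PMG+AL medium with 23 nL pinned compound. Grown 24 h at 30 degrees; viability read by BacTiter-Glo luminescence after 5 min.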
2A StopGo: lowers the luciferase signal of an FMDV 2A StopGo reporter | human cells with a luciferase reporter of 2A StopGo recoding; control for the full effect not named in the record | Potency, µM (titrated, usually from 57.9 µM), without a hit: at the highest dose signal change, negative = less light | 1.2% of 410,000 active; active = well fitted falling curve with a large enough effect; inconclusive = small, poorly fitted or top-dose-only effect; inactive = no such curve, though single readings can be large or run the other way; tested in HEK293T cells; also: % is scaled to controls: 0 for no effect and ±100 for the full control effect; nearly all actives have a fitted effect of over 45% in size; luciferase light after 4 h
Marburg entry inh: inhibitors of Marburg virus binding or cell entry | Marburg virus pseudotyped entry inhibition, cell reporter; control for the full effect not named in the record; about a third of the inactives were read at about 46 µM | Potency, µM (doses to about 37.8 µM), without a hit: at the highest dose activity change, negative = inhibition, actives largely listed as inhibitors | 1.8% of 300,000 active; active = well fitted inhibition curve with a large enough effect; inconclusive = small, poorly fitted or top-dose-only effect, or effect the other way; inactive = flat fitted curve, though single readings scatter; tested in HEK293 cells; about a fifth of its hits are not listed in these tables; also: % is scaled to controls: 0 for no effect and ±100 for the full control effect; luciferase read-out
SARS PLP yeast: inhibitors of SARS-CoV papain-like protease in yeast | Potency, µM (doses to about 32.9 µM), for inactives: top-dose activity, positive = growth rescue | 0.19% of 330,000 active | S. cerevisiae expressing SARS-CoV PLpro, growth rescue; control for the full effect not named in the record | AID 485353; active means well fitted rising curve with a large enough effect; inconclusive means small, poorly fitted or top-dose-only effect; inactive means no such curve, though single readings can be large or run the other way; also: 0% is about no effect; nearly all actives have a fitted effect of over 55% in size; growth read by luminescence after 48 h
Cruzain inh Det: cruzain (T. cruzi) inhibition with detergent. P25779. purified cruzain, Z-FR-AMC fluorescence, 0.01% Triton. Potency, µM, without a hit: max response, negative = inhibition, hits mostly inhibitors. 0.43% of 200,000 active;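 also: plate controls were neutral wells for no effect and buffer without enzyme for full effect; nearly all actives have a fitted effect of over 40% in size; top concentration of the series not given in the record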
Target sequence (P25779 123-467 limits assumed): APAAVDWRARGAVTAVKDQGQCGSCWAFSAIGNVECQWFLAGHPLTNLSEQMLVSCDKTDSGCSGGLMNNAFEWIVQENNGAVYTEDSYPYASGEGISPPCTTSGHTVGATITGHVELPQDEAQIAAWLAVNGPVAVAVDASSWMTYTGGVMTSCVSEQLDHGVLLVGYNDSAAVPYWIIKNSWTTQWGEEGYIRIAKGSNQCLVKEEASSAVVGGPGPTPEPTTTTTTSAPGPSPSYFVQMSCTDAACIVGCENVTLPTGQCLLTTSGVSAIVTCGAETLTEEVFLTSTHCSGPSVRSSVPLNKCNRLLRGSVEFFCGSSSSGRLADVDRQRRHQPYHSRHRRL
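Purified cruzain (1.5 nM final) was preincubated with compounds for 15 min at room temperature in 100 mM sodium acetate pH 5.5, 5 mM DTT, 0.01% Triton X-100. Reaction started with 2 uM Z-FR-AMC; AMC fluorescence change over 60 s gave activity.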
Cruzain inh noDet: blocks cruzain activity in detergent-free assay | 2.3% of 200,000 active | AID 1476 | Potency, µM, inactives show max response, negative = inhibition, usual class: inhibitors | purified cruzain, Z-FR-AMC fluorescence, no detergent;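 also: plate controls were enzyme without inhibitor for no effect and buffer without enzyme for full effect; nearly all actives have a fitted effect of over 40% in size; top concentration of the series not given in the record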
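Detergent-free condition (0.00005% Triton X-100) in acetate buffer pH 5.5 with DTT. 1.5 nM enzyme and compound were pre-mixed 15 min, then 2 uM Z-FR-AMC substrate added; reaction progress from fluorescence change between first and third reads (60 s).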
LASV entry inh: blocks Lassa virus binding to or entry into cells. Lassa virus pseudotype entry inhibition, cell reporter; control for the full effect not named in the record. Potency, µM (doses to about 37.9 µM), inactives show top-dose activity change, negative = inhibition, hits mostly inhibitors. 1.2% of 300,000 active; active means well fitted inhibition curve with a large enough effect; inconclusive means small, poorly fitted or top-dose-only effect, or effect the other way; inactive means flat fitted curve, though single readings scatter; tested in HEK293 cells; also: % is scaled to controls: 0 for no effect and ±100 for the full control effect; nearly all actives have a fitted effect of over 50% in size; luciferase read-out
* = called active by the depositor; ? = inconclusive; / = no result given; [ ] = dose if it differs, or a comment. Unless noted, calls follow the shape of the dose curve; as a rule, active = well fitted curve in the direction sought with a large enough effect; inconclusive = small, poorly fitted or top-dose-only effect, or another doubt; inactive = no such curve, though single readings can be large; an effect the other way counts as inactive or inconclusive. Potency is read from the fitted curve at half-maximal effect.

SMILES	NS1 inh	RE007 growth inh	2A StopGo	Marburg entry inh	SARS PLP yeast	Cruzain inh Det	Cruzain inh noDet	LASV entry inh
Cc1cnn(C(=O)c2cc(-c3ccccc3)nc3ccccc23)c1	-52%	-4%	22%	1%	-1%	-0.3%	-7%	22%
Cc1cc(-c2ccc(S(=O)(=O)Nc3ccccc3C)cc2)on1	/	/	-11%	/	/	-5.7%	-10%	-12%[46.1 µM]
O=C(Nc1cccn(Cc2ccccc2)c1=O)NC1CCCCC1	-8%	-21%	-27%	-2%	-6%	2.6%	-5%	?
COc1cccc(C(=O)Nc2ccc(NC(C)=O)cn2)c1	-2%	-26%	45%[activator]	22%	6%	-0.4%	-20%	-6%
O=C(c1ccco1)N1CCN(c2ccc(Cl)c(Cl)c2)CC1	-73%	?	-7%	23%	/	/	/	11%
O=C1NCCN1CCNS(=O)(=O)c1ccc(F)c(Cl)c1	2%	-5%	0%	/	0%	/	/	/
CC(C)(C)NC(=O)C(c1ccccn1)N(C(=O)C1CSC(=O)C1)c1ccccc1F (stereo not given)	3%	4%	-5%	/	0%	/	/	/
Cc1ccc(C(=O)N2CCCCC2)cc1S(=O)(=O)N1CCOCC1	2%	3%	0%	16%	-6%	/	/	-1%
N#Cc1ccccc1OCC(=O)Nc1cccc(S(=O)(=O)N2CCCCCC2)c1	/	20%	-5%	?	-2%	/	/	?
OCCNc1ncnc2c1cnn2Cc1ccccc1	1%	11%	-2%	-2%[46.1 µM]	1%	/	/	10%[46.1 µM]
COCc1nnc(NC(=O)CC(C)c2ccccc2)s1 (stereo not given)	-4%[9.22 µM]	-8%	10%	9%	4%	5.0%	1%	-5%
O=C(NCc1ccco1)c1cccn2c(=O)c3sccc3nc12	-3%	9%[3.69 µM]	-3%	-13%	/	/	/	8%
Cc1nn(C)c2c1c(C(F)(F)F)cc(=O)n2CC(=O)N1CCN(c2ccccc2F)CC1	/	/	-13%	/	/	-9.0%	?	27%[46.1 µM]
Cc1csc(NC(=O)c2cccnc2)n1	-17%	-10%	27%	/	-5%	/	/	/
CCC(C)NC(=O)CSc1ncccc1C(=O)O (stereo not given)	0%	3%	/	10%	0%	4.3%	2%	-12%
CCOc1ccc2nc(N(Cc3cccnc3)C(=O)c3ccc4c(c3)OCCO4)sc2c1	/	/	0%	/	/	3.6%	-5%	22%[46.1 µM]
CC(C)c1ccc(C2NC(=O)c3n[nH]c(-c4cccs4)c32)cc1 (stereo not given)	/	/	0%	-10%[46.1 µM]	/	-11%	-8%	-18%[46.1 µM]
Cc1ccccc1CN1C[C@@H]2C[C@@H](c3cn(C)nc3-c3ccccc3)N3CCC[C@@]23C1=O	8%	-15%	13%	?	-1%	/	/	3%[46.1 µM]
CCOC(=O)c1c(S(=O)(=O)N2CCC(C)CC2)c(C)n(C)c1C	?	0%	19%	/	?	/	/	/
Cn1cnc(C(F)(F)F)c1-c1ccc([N+](=O)[O-])cc1	-8%	-4%	-19%	3%	5%	-0.9%	9%	2%
Cc1nc2cc3nc(C(F)(F)F)[nH]c3cc2[nH]1	3%	-3%	-4%	?	-7%	-1.0%	-2%	-1%
Cc1ccnc(NC(=O)/C=C/c2cccs2)c1	-23%	-7%	-6%	?	-16%	-2.7%	-9%	?
CCN(CC(=O)Nc1ccc(NC(C)=O)cc1)C(=O)/C=C/c1ccccc1	/	-5%	-9%	-10%	/	/	/	-9%
N#Cc1ccc(NC(=O)CN2C(=O)NC3(CCCC3)C2=O)cc1	8%	1%	-18%	0%[46.1 µM]	6%	/	/	13%
CCN(C(=O)CSc1nc2ccc([N+](=O)[O-])cc2s1)C1CCS(=O)(=O)C1 (stereo not given)	/	0%	-25%	-7%	1%	/	/	-20%
CC(C)Oc1cccc(C(=O)Nc2ccc(N3CCN(C)CC3)cc2)c1	14%	5%	56%[activator]	/	2%	/	/	/
O=C(NCc1ccccc1)C1CCC(=O)N(CCCN2CCCC2=O)C1 (stereo not given)	-4%	5%	-1%	/	0%	/	/	/
CS(=O)(=O)N1CCN(c2ccc(NC(=O)COc3ccccc3[N+](=O)[O-])cc2)CC1	3%	1%	-17%	-4%	-3%	/	/	3%
CC(C)N(Cc1nc(-c2ccccc2)no1)C(=O)CN(C)S(=O)(=O)c1ccc(Br)cc1	3%	2%	-22%	?	3%	-6.9%	?	-9%
O=C(NC1CCCCC1)c1cc(S(=O)(=O)N2CCOCC2)c(Cl)cc1Cl	-11%	11%	-26%	3%[46.1 µM]	-1%	/	/	22%
CCOC(=O)c1cc(-c2ccccc2)n(CCC(=O)Nc2ccc(C(F)(F)F)cc2)c1C	/	/	?	/	/	2.8%	0%	?
Cc1c(C(=O)N2CCCCC2)c(S(=O)(=O)N2CCN(c3ccc(Cl)cc3)CC2)c(C)n1C	3%	-10%	-2%	?	1%	/	/	-24%[46.1 µM]
COc1cc(SC)ccc1C(=O)N(C)CC(=O)Nc1cccc2ccccc12	/	6%	-14%	7%	16%	/	/	-12%
CCCCNC(=O)C1=CC(c2ccc3c(c2)OCO3)=NS(=O)(=O)N1C	/	/	41%[activator]	23%[46.1 µM]	/	-4.1%	-12%	13%[46.1 µM]
CCOc1ccc(CN2CCC(n3nccc3NC(=O)CCCc3ccccc3)CC2)cc1	-14%	20%	?	/	0%	/	/	/
CC[C@@H](C)[C@H](NC(=O)OCc1ccccc1)c1nnc([C@@H](NC(=O)OCc2ccccc2)[C@@H](C)CC)o1	4%	7%	-16%	/	0%	/	/	/
CCC1CCCCN1CCCNC(=O)C1CCN(S(=O)(=O)N2CCC3(CC2)OCCO3)CC1 (stereo not given)	7%	-5%	-4%	/	-3%	/	/	/
Cc1ccc(C(=O)CCNc2ccc(F)c(Cl)c2)o1	-20%	?	17%	-17%	-5%	-0.5%	8%	-3%
C=CCNc1nc(Cl)nc(Nc2cc(Cl)ccc2OC)n1	22%	6%	-12%	13µM*	6%	/	/	3%
CCOc1cc2[nH]c(=S)n(Cc3ccc(C(=O)NCC(OC)OC)cc3)c(=O)c2cc1OCC	0%	2%[3.69 µM]	-6%	-20%	?	1.9%	27%	-19%
Cc1cc2cc(C#N)c(NCCNC(=S)NCCCN3CCOCC3)nc2cc1C	13%	-4%	7%	7%[46.1 µM]	4%	25µM*	?	2%
COc1c2c(nc3occc13)C(CC=C(C)C)(OC)C(O)CC2 (stereo not given)	-2%	8%	-7%	-25%	-3%	-0.2%	-3%	-17%
COc1cc(C(Nc2ccc(S(=O)(=O)NCC3CCCO3)cc2)C(=O)NC(C)(C)C)cc(OC)c1OC (stereo not given)	-8%	22%	-5%	-1%[46.1 µM]	-3%	/	/	13%
S=C(c1cn(Cc2ccccc2)c2ccccc12)N1CCOCC1	/	21%	34%[activator]	?	-8%	/	/	-15%
Cc1nn(C(=O)c2ccco2)c(C)c1CN1C(=O)c2ccccc2C1=O	?	8%	0%	-9%	5%	2.4%	-3%	18%
O=S(=O)(NC1CC1)c1ccc(S(=O)(=O)N2CCC3(CC2)OCCO3)cc1	1%	11%	-13%	-10%[46.1 µM]	0%	/	/	-2%
CCOC(=S)N/C(=N\S(C)(=O)=O)c1ccccc1	-1%	21%	-2%	/	0%	/	/	/
CCOC(=O)C1(Cc2ccccc2C)CCCN(C(=O)c2ccc(OC)o2)C1 (stereo not given)	-32%	-9%	-24%	/	0%	/	/	/
Cc1cc(-c2cc(-c3ccccc3)on2)nc(NCC2CC2)n1	-7%	-1%	-7%	/	-4%	/	/	/
CCC12CN3CC(CC)(CN(C1)C3c1ccccn1)C2=O (stereo not given)	/	/	-9%	0%[46.1 µM]	/	4.5%	3%	23%[46.1 µM]

Remaining list, next part
SMILES	NS1 inh	RE007 growth inh	2A StopGo	Marburg entry inh	SARS PLP yeast	Cruzain inh Det	Cruzain inh noDet	LASV entry inh
CCN(c1ccccc1)S(=O)(=O)c1ccc(C(=O)N(C)CCc2ccc(OC)c(OC)c2)cc1	14%	-10%	2%	-9%[46.1 µM]	7%	/	/	-9%
Cc1ccc(O)c(NC(=O)c2cc(-c3ccco3)on2)c1	-19%	8%	34%[activator]	?	0%	/	/	-27%
CC(=O)N1CCN(C(=S)c2cccc([N+](=O)[O-])c2)CC1	-5%	-11%	-12%	-2%	-4%	-3.6%	-7%	?
O=C(Nc1cccc(-c2csc(Nc3ccccc3)n2)c1)c1cc([N+](=O)[O-])cc(C(F)(F)F)c1	23%	-1%	-3%	/	1%	/	/	/
COc1cc(/C=N\NC(=O)c2ccc(C)nc2)ccc1OC(=O)c1cccc(F)c1	8%	5%	7%	9%[46.1 µM]	-2%	/	/	15%
O=C(COc1ccc(F)cc1)NCc1ccc2c(c1)CCN2C(=O)c1ccccc1	/	/	-7%	/	/	-0.9%	21%	?
COc1ccc(OC(=O)N(C)C)c(CN(C)C)c1	4%	-3%	-20%	13%	-2%	7.4%	-3%	7%
COc1ccc2cc(CCNC(=O)C(C)C)c(=O)[nH]c2c1	-119%	3%	20%	/	1%	2.4%	8%	/
Cc1ccc(C)c(OCCCC(=O)O)c1	-49%	11%	-16%	?	?	-0.5%	-2%	-11%
CN(C(=O)/C(N=Nc1cccc(C(F)(F)F)c1)=C(\O)C(F)(F)F)c1ccccc1	-17%	-27%	-19%	?	-39%	-11%	-1%	-1%
Cc1csc(=O)n1CCC(=O)OC(C)C(=O)NCc1ccccc1 (stereo not given)	/	-5%	-7%	7%[46.1 µM]	7%	/	/	3%[46.1 µM]
CC(C)N(C(=O)C1CC(=O)OC12CCCCC2)C(C)C (stereo not given)	-1%	3%	-8%	-18%	-4%	-0.4%	7%	-6%
O=S(=O)(Nc1ccccc1O)c1cccc2cccnc12	0%	13%	21%	?	-1%	/	/	?
COc1ccc(CC(=O)N2CCN(c3ccc(C4=NNC(=O)CC4C)cc3)CC2)cc1 (stereo not given)	9%	19%	-26%	?	-4%	-7.8%	4%	?
